From PubChem BioAssay
Vif TR-FRET – inhibitors of Vif binding to APOBEC3G peptide, primary screen, biochemical, TR-FRET, GST-Vif 1-94, biotin-A3G peptide, dose response retest (AID 1117319); Virion infectivity factor (Human immunodeficiency virus type 1 group M subtype B (isolate …; TR-FRET GST-Vif / biotin-A3G peptide binding; higher % means a stronger effect; test concentration not given here; strong numbers were not always called active; one-dose inhibition, %; IC50 in µM for titrated hits; hit rate 0.57% among 260,000;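 active means above the screen mean plus three standard deviations and confirmed in dose response; inconclusive means results disagree or hit not tested in dose response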;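 further: Vif residues 1-94 fused to GST binding biotinylated APOBEC3G peptide 110-148; 0% = full assay without inhibitor and 100% = GST in place of GST-Vif; retest series ran down from 100 µM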
MLL AF4-AF9 inh – inhibitors of AF4 peptide binding to AF9, primary screen, biochemical, AlphaScreen, biotin-AF4 peptide, FLAG-AF9, single point. hit rate 0.47% among 350,000. inhibition, % at 10 µM. Protein AF-9 (Homo sapiens), P42568. AID 651704, 2012;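 active means every replicate reaching a set inhibition limit, whatever the replicate mean, cut at about 25% in these data; inconclusive means mean inhibition reaches that limit but some replicates miss it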;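 further: 0% = plate neutral control median and 100% = total signal loss; the record names both 10 and 1 µM as test concentration; the first replicate is given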
rRNA inh HTS – reduced GFP signal of wild-type E. coli, primary screen, bacterial rRNA inhibitor project, GFP/RFP fluorescence, OD600, single point; E. coli WT GFP vs humanized-ribosome RFP mutants, 24 h; stronger effect = lower value; DMSO median 0, no signal -100; GFP signal change (wild-type ribosome), % (concentration not given with the values); hit rate 1.6% among 350,000; AID 720706, 2013;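 active means significant combined selectivity score with lowered wild-type GFP, culture density cut under 30%, mutant RFP and density less affected; inactive means any of these conditions unmet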; further: one replicate is shown; some compounds called inactive have numbers as strong as hits
HNF4A DNA FP – change in binding of human HNF4A to DNA, primary screen, biochemical, fluorescence polarization, FITC-DNA. activity change, % at 10 µM. 1 h. hit rate 0.3% among 360,000. Hepatocyte nuclear factor 4-alpha (Homo sapiens), P41235; in the data active means activity change above about 30%, passing the limit was not always enough;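 further: controls were the assay level and a saturating level of protein; the project sought stronger binding though the title names inhibitors; some compounds called inactive have numbers as strong as hits; positive values seem to mean higher polarization but the record does not say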
Target sequence (P41235 whole entry, looked up): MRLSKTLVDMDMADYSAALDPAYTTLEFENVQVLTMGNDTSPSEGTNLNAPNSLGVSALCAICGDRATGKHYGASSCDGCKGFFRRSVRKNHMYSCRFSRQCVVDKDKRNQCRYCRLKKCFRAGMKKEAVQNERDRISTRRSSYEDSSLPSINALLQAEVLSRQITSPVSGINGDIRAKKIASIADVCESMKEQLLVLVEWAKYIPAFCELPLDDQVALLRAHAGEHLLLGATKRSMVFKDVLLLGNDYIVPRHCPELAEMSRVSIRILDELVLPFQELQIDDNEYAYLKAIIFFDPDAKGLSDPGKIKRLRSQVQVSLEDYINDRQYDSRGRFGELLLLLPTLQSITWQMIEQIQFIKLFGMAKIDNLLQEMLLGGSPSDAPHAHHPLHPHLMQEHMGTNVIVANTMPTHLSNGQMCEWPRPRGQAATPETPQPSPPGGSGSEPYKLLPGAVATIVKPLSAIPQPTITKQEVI
ALR H2O2 inh – inhibitors of human ALR sulfhydryl oxidase, primary screen, biochemical, H2O2 detection, HRP-luminol luminescence, single point; purified ALR, DTT oxidation; inhibition, % (concentration not given with the values); hit rate 3.8% among 290,000; AID 485317, 2010;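 active means mean and each replicate at 75% or more; inconclusive means only one of the two met; inactive means neither met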;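 further: stock transfer was 7.5 nL into about 7.5 µL; 0% = neutral wells and 100% = wells with inactivated enzyme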
Target sequence (P55789 whole entry, looked up): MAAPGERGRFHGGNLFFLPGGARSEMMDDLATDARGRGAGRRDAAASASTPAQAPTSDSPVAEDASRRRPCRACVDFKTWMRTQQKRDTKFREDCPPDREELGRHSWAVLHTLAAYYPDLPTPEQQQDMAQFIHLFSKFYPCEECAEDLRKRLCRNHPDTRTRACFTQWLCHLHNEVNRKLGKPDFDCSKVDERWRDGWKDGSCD
FGF22 binding – binders of human FGF22 protein, primary screen, FGF22 synaptogenesis inhibitor project, biophysical, thermal shift, single point; Fibroblast growth factor 22 (Homo sapiens), Q9HCT0; AID 651658, 2012; calls only at 9.99 µM; recombinant FGF22 thermal shift, SYPRO orange fluorescence; percent of sucrose octasulfate shift, DMSO zero; hit rate 1.5% among 340,000;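 active means melting point raised past a set limit in the mean and every replicate; inconclusive means no clear call; three in four hits are not shown here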
Target sequence (Q9HCT0 whole entry, looked up): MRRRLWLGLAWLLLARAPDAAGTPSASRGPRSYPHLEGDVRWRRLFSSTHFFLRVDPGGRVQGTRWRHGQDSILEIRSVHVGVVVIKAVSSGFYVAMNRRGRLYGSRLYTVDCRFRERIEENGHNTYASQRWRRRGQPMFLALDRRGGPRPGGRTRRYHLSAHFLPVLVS
E coli growth – E. coli growth inhibition, primary screen, OD600; OD600 absorbance (no concentration beside the values); Escherichia coli growth, 23 h; stronger effect = lower value; AID 1053175, 2014; hit rate 0.21% among 330,000;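 active means OD600 absorbance below the run mean of sample wells minus 3.6 SD, in any replicate, cut at about 0.56 in these data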;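 further: stock transfer was 300 nL into about 60 µL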
rRNA inh HTS OD600 – second read-out of rRNA inh HTS, no call of its own (marks repeat the call); OD600 change, %; measured here: OD600 growth;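 optical density of the mix in the first replicate; 0 = DMSO median and -100 = no signal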
rRNA inh HTS RFP – second read-out of rRNA inh HTS, no call of its own (marks repeat the call); RFP signal change, %; measured here: RFP humanized mutant strains;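 first replicate; 0 = DMSO median and -100 = no signal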
Starred values were filed as active, the others as inactive; i = inactive; ? = inconclusive; . = not tested or not shown; & = joins results of further samples. The list is partial; rates above refer to the full screens.

SMILES	Vif TR-FRET	MLL AF4-AF9 inh	rRNA inh HTS	rRNA inh HTS OD600	rRNA inh HTS RFP	HNF4A DNA FP	ALR H2O2 inh	FGF22 binding	E coli growth
O=C1CCN(Cc2ccc(O)cc2)CCN1CCO	.	-1.3&-0.1	13	4	2.7	2.1&3.2	28	i	0.66
O=C(C[C@H]1C[C@H]2c3cc(NC(=O)C4CCOCC4)ccc3O[C@H]2[C@@H](CO)O1)NC1CCCC1	.	-0.6	-1	-8	-1.1	.	.	i	.
CCCCc1ccc(-n2c(Cc3cccs3)n[nH]c2=S)cc1	-5%	-1.6	-27	-40	-3.8	1.1	35	i	0.68
COC(=O)c1ccccc1NC(=O)CN(C)S(=O)(=O)c1cc(C)ccc1OC	0%	.	.	.	.	3.6	-15	.	0.73
COc1ccccc1NC(=O)CCc1nnc2ccc(N3CCN(C)CC3)nn12	-4%	1.2	12	15	-0.7	-2.6	-2	i	0.7
CCOc1ccccc1C(=O)OCC(=O)Nc1cc(Cl)ccc1Oc1ccccc1	-8%	-2.1	14	15	0.2	-2.6	24	i	0.7
CO[C@@H]1CC[C@H]2CCOc3ccc(C#N)cc3C(=O)N(C)CCCC(=O)N(C)C[C@H]1O2	.	-0.1	4	-9	1.6	.	.	i	.
C=CCOc1c(CNc2ncn[nH]2)cccc1OC	2%	.	.	.	.	-1.3	2	.	0.63
Oc1cccc(C2c3[nH]c4ccccc4c3CCN2Cc2ccoc2)c1 (configuration not stated)	17%	5.9	-6	-15	-0.1	1.8	-1	i	0.67
O=C(NCCc1c[nH]c2ccccc12)C(=O)Nc1cc2c3c(c1)CC(=O)N3CCC2	-1%	0.6	-11	-12	0.1	-1.4	-5	i	0.72
Cc1cc(NC(=O)CSc2nnc(C3COc4ccccc4O3)n2C)no1 (configuration not stated)	.	-1.3	17	5	5.6	-1.6	.	i	0.72
CCOc1ccc(NC(=O)C(CC)NC(=O)c2ccccc2CO)cc1 (configuration not stated)	4%	.	.	.	.	0.2	0	.	0.67
Cc1ccc2nc(-c3ccccc3)c(Cc3ccsc3)n2c1	.	2.8	-40	-76	-5.4	5.2	.	i	.
COc1ccc(CN(C(=O)c2cc3ccccc3oc2=O)C2CCCC2)cc1	19%	.	.	.	.	-0.6	-6	.	0.76
CCCNC(=O)N1C[C@@H](C)[C@H](OC)CN(C)C(=O)c2cc(NS(=O)(=O)CC)ccc2OC[C@H]1C	.	-0.8	1	5	-0.9	.	.	i	.
CC(C)Cc1nnc(NS(=O)(=O)c2ccccc2)s1	-3%	-6.5	-17*	1.4*	-0.7*	-4.2	.	i	.
O=C(COc1coc(CN2CCN(c3ccc(F)cc3)CC2)cc1=O)NC1CCCC1	-7%	-11	2	14	0.3	-0.2	3	i	0.66
COc1cccc(N2CCN(C(=O)C3CCN(S(=O)(=O)c4ccc5c(c4)CC(C)N5C(C)=O)CC3)CC2)c1 (configuration not stated)	5%	1.5	12	10	5.3	-5.5	5	i	0.74
Cn1c(CSCc2ccccc2)n[nH]c1=S	-8%	.	.	.	.	1.1	-4	.	0.7
CC(C)NC(=O)N(C)C[C@H]1Oc2ccc(NC(=O)Nc3ccc(F)cc3)cc2C(=O)N([C@H](C)CO)C[C@@H]1C	.	-0.4	4	-5	-0.3	.	.	i	.
O=C(Nc1cc(Cl)c(O)c(Cl)c1)C1CCCO1 (configuration not stated)	6%	-7.4	2	1	-6.0	1.8	98*	i	0.63
CC(C)NC(=O)N[C@@H]1CC[C@@H](CCNC(=O)C2CCC2)O[C@H]1CO	.	-0.3	0	-1	-0.5	.	.	i	.
S=C(Nc1ccc(Cl)cc1)c1sc(N2CCCCC2)nc1N1CCOCC1	.	.	.	.	.	0.1	0	.	0.69
COc1ccc(CCNC(=O)c2cccc(NS(=O)(=O)c3ccccc3F)c2)cc1OC	.	-4.9	-9	-10	0.5	5.8	-7	i	0.72
O=C(COc1ccccc1)N1CCc2ccccc21	27%	-19	-4	-4	2.8	-1.1	.	i	0.68

(further entries)
SMILES	Vif TR-FRET	MLL AF4-AF9 inh	rRNA inh HTS	rRNA inh HTS OD600	rRNA inh HTS RFP	HNF4A DNA FP	ALR H2O2 inh	FGF22 binding	E coli growth
O=C1c2ccccc2C(=O)N1c1ncc(Cc2ccc(Cl)cc2)s1	.	-5.9	-37	-46	-13	-2.3	.	i	0.66
COc1ccc(S(=O)(=O)N2c3cc(C)ccc3OCC2C(C)(C)C)cc1 (configuration not stated)	2%	.	.	.	.	6.5	-11	.	0.7
CCOC(=O)c1nc(C)nc(Sc2n[nH]c(-c3ccc(C(C)(C)C)cc3)n2)c1C	-8%	4.4	-13	-22	-1.2	-0.9	9	i	0.66
O=C(c1ccc(COCC(F)(F)F)o1)N1CCCCCC1	6%	.	.	.	.	-0.1	.	.	0.72
O=C(Cc1ccccc1)N/N=C/c1ccccc1OCc1ccc(Cl)cc1	?	.	.	.	.	-1.0	-4	.	.
Cc1cc(C)nc(Nc2n[nH]c(COc3ccccc3)n2)n1	-1%	.	.	.	.	2.2	1	.	0.81
CCCCCOP(=O)(c1ccccc1)c1ccccc1	.	-4.0	-32	-52	-4.1	-2.0	12	i	0.63
CCOC(=O)N1CCN(C(=O)c2ccc(Cl)c(NC(=O)c3cccs3)c2)CC1	.	1.3	-4	-1	2.8	-0.7	-15	i	0.63
CCOc1ccc2c(C)c(C(=O)O)oc2c1OCC	1%	.	.	.	.	-3.3	.	.	0.69
CC(C)CNC(=O)C1(C)CCCN1Cc1ccccc1OC(F)F (configuration not stated)	.	1.3	-3	-24	-5.7	-0.5	.	i	.
C[C@@H]1CN([C@@H](C)CO)C(=O)c2cccc(NC(=O)Nc3ccccc3)c2O[C@H]1CN(C)CC1CCCCC1	.	5.8	-7	-13	3.1	.	.	i	.
CC(C)c1cccc(NC(=O)C[C@H]2CC[C@H]3[C@@H](COc4ccc(NS(=O)(=O)c5ccccc5Cl)cc4C(=O)N3C)O2)c1	.	0.2	-5	-2	0.2	.	.	i	.
CC1(Oc2ccc3ccccc3c2)CCN(Cc2ccc(OC(F)(F)F)cc2)C1 (configuration not stated)	.	0.5	4	-22	-3.7	2.5	.	i	.
CN(C)S(=O)(=O)c1ccc(Cl)c(NC(=O)CN2CCc3ccccc3C2)c1	?	1.5	-19	-20	7.2	-1.1	-4	i	0.69
CCCNC(=O)C1(C)CCN(C(=O)c2ccc3snnc3c2)C1 (configuration not stated)	.	-0.6	16	1	2.4	-1.4	.	i	.
NC(=S)NN=C1C=CCCC1	0%	3.5	11	6	-1.6	0.2	.	i	.
CC(C)NC(=O)N(C)C[C@H]1Oc2ccc(NC(=O)C3CCCCC3)cc2CC(=O)N([C@@H](C)CO)C[C@@H]1C	.	-2.4	2	8	0.6	.	.	i	.
CNc1cncc(-c2cc(C)c(O)c(C)c2)n1	.	5.3	4	-20	0.2	-0.5	.	i	.
Cc1cc(NN=Cc2ccccn2)nc2c(C)cccc12	.	11	0	1	-0.4	.	.	i	.
CC1Cc2ccccc2N1S(=O)(=O)c1cnc[nH]1 (configuration not stated)	6%	.	.	.	.	6.0	.	.	0.71
O=C(/C=C/c1cccs1)c1ccc([N+](=O)[O-])cc1	.	-1.3	6	11	4.1	-1.7	-5	i	0.65
CN(C)CCN(C(=O)c1ccc(S(=O)(=O)N(C)CC2CCCO2)cc1)c1nc2cc3c(cc2s1)OCO3 (configuration not stated)	.	4.3	6	4	-1.1	-4.0	8	i	0.7
CCOc1ccc(-n2nc3ccc(NC(=O)c4ccc5c(c4)OCCO5)cc3n2)cc1	3%	.	.	.	.	4.3	-2	.	0.66
COc1cccc(-c2cnc3c(NC=O)cc(-c4ccccc4)cn23)c1	.	1.1	8	-12	15	4.7	.	i	.
CC(Sc1nnc(-c2ccncc2)n1C)C(=O)NCC1CCCO1 (configuration not stated)	4%	-1.4	3	-2	-1.5	1.3	-9	i	0.69

Additional compounds
SMILES	Vif TR-FRET	MLL AF4-AF9 inh	rRNA inh HTS	rRNA inh HTS OD600	rRNA inh HTS RFP	HNF4A DNA FP	ALR H2O2 inh	FGF22 binding	E coli growth
Cc1noc(/C=C/NCc2cccnc2)c1S(=O)(=O)N(C)CC(=O)N1CCc2ccccc21	8%	3.5	0	-11	-5.3	1.0	-3	i	0.78
Cc1ccc(-c2cc(C(=O)NCC3CCCO3)no2)cc1 (configuration not stated)	7%	.	.	.	.	1.7	-3	.	0.68
COc1ccc(-c2cc3nc(C)cc(N4CCN(C(=O)c5cccnc5)CC4)n3n2)cc1	-1%	-3.3	-6	-5	-6.8	1.2	.	.	.
COc1ccccc1NC(=O)C1CCCN1C(=O)Nc1ccc(F)cc1 (configuration not stated)	.	0.1	-1	-5	-1.1	-3.4	14	i	0.67
C=CCn1c(SCC(=O)Nc2cccc(C(=O)OC)c2)nnc1C(C)NC(=O)c1cccs1 (configuration not stated)	?	.	.	.	.	-2.9	32	.	0.65
COCCNc1nc(NCc2ccc(C)cc2C)c2sccc2n1	.	3.7	-22	-41	-14	4.1	.	i	.
C[C@@H]1CN([C@@H](C)CO)C(=O)c2cc(NS(=O)(=O)c3cn(C)cn3)ccc2O[C@H]1CN(C)C(=O)Nc1ccc2c(c1)OCO2	.	-2.3	2	-2	-1.4	.	.	i	.
CN1C[C@H]2[C@@H](c3ccccc31)[C@H](CO)N2C(=O)C1CCCC1	.	1.3	4	0	-0.8	.	.	i	.
O=C(CC1CC1)N1CC2(C1)[C@H](c1ccccc1)[C@@H](CO)N2C(=O)C1CCOCC1	.	-0.9	4	4	-3.5	.	.	i	.
COc1ccc2cc(-c3csc(-c4cccnc4)n3)ccc2c1	-6%	.	.	.	.	-0.9	-12	.	0.77
COc1ccc(Nc2nc(N3CCCC3)nc(N3CCCC3)n2)c(OC)c1	21%	.	.	.	.	1.6	-23	.	0.73
CC1(C(=O)Nc2cccc3c2CCCC3)CCN1C(=O)C1(c2ccc(Cl)cc2)CC1 (configuration not stated)	.	-1.5	.	.	.	-4.6	.	i	.
Cc1c(Cl)cnc(NC(=O)COC(=O)c2cccc(S(=O)(=O)N3c4ccccc4CC3C)c2)c1Cl (configuration not stated)	-4%	-7.4	5	9	2.3	-1.4	.	i	0.74
Cc1cc(C)cc(N(CC(=O)NCc2ccco2)C(=O)c2snc(C(N)=O)c2N)c1	3%	.	.	.	.	-1.8	1	.	0.63

Part of the list above in order of SMILES length, lowest first:
SMILES	Vif TR-FRET	MLL AF4-AF9 inh	rRNA inh HTS	rRNA inh HTS OD600	rRNA inh HTS RFP	HNF4A DNA FP	ALR H2O2 inh	FGF22 binding	E coli growth
O=C1CCN(Cc2ccc(O)cc2)CCN1CCO	.	-1.3&-0.1	13	4	2.7	2.1&3.2	28	i	0.66
CCCNC(=O)C1(C)CCN(C(=O)c2ccc3snnc3c2)C1 (configuration not stated)	.	-0.6	16	1	2.4	-1.4	.	i	.
COc1ccc(Nc2nc(N3CCCC3)nc(N3CCCC3)n2)c(OC)c1	21%	.	.	.	.	1.6	-23	.	0.73
CC1(Oc2ccc3ccccc3c2)CCN(Cc2ccc(OC(F)(F)F)cc2)C1 (configuration not stated)	.	0.5	4	-22	-3.7	2.5	.	i	.
CN(C)CCN(C(=O)c1ccc(S(=O)(=O)N(C)CC2CCCO2)cc1)c1nc2cc3c(cc2s1)OCO3 (configuration not stated)	.	4.3	6	4	-1.1	-4.0	8	i	0.7
